VDR inhibitor: inhibitors of human vitamin D receptor; P11473; VDR-SRC2-3 peptide fluorescence polarization, 2 h; Potency, µM, for inactives: max response, negative = inhibition, most hits filed as inhibitors; actives 0.93% (n = 400,000); active = well fitted inhibition curve with a large enough effect; inconclusive = small, poorly fitted or top-dose-only effect, or another doubt; inactive = no such curve, though single readings can be large or run the other way; also: series mostly up to about 120 µM
Target sequence (P11473 whole entry, looked up): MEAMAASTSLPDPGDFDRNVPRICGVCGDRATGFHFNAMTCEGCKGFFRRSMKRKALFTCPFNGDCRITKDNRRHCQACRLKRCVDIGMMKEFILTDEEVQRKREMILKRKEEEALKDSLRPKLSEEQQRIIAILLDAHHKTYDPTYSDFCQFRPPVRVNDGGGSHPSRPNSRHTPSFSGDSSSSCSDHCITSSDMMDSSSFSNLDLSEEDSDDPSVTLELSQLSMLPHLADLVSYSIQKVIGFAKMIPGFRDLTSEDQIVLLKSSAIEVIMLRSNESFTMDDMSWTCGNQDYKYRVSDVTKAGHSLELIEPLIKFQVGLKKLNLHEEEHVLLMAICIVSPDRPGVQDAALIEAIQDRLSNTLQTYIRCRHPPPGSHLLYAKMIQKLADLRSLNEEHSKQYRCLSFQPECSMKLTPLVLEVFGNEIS
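The screen uses fluorescence polarization to detect compounds that interfere with recruitment of the SRC2-3 coactivator peptide to VDR; plates are read after 2 h at room temperature.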
Starred values were filed as active, the others as inactive; ? = inconclusive; & = joins results of further samples. % is scaled to controls: 0 for no effect and ±100 for the full control effect; potency is read from the fitted curve at half-maximal effect. Only part of the results is shown; count on the stated rates, not on these rows.

cpd	compound	VDR inhibitor
1	Cc1cc(NC(=O)c2cccc([N+](=O)[O-])c2)n(-c2ccccc2)n1	-3%
2	COc1ccc(OC)c(NC(=O)CSc2nnc(CNC(=O)c3ccccc3F)o2)c1	-8%
3	Cc1ccc(CSc2nnc([C@@H](N)C(C)C)o2)cc1	10%
4	COC(=O)C(Cc1c[nH]c2ccccc12)NC(=O)c1cc(-c2ccc(OC)c(OC)c2)oc1C (configuration not stated)	?
5	Cc1ccc(C(=O)CN2C(=O)C(C)Oc3ccccc32)cc1 (configuration not stated)	-19%
6	C#CCOCCOCCOCCNc1nc(N2CCN(C(=O)[C@H](CCCCN)n3cc(CCCC)nn3)CC2)nc(N2CCN(C(=O)[C@H](Cc3ccc(O)cc3)n3cc(CCO)nn3)CC2)n1	-7%
7	CN(CC(=O)Nc1cccc(F)c1)C(=O)c1cn2ccccc2n1	11%
8	CCOC(=O)C1=C(C)NC2=C(C(=O)c3ccccc32)C1c1ccc(O)cc1 (configuration not stated)	-10%
9	Cc1sc(N)nc1C12CC3CC(CC(C3)C1)C2	0%
10	O=C(OC1CCN(c2ncc(C(F)(F)F)cc2Cl)CC1)c1ccc(Cl)cc1	8%
11	CN(C)N=Nc1ccc(S(=O)(=O)NC(Cc2ccccc2)C(=O)O)cc1 (configuration not stated)	-4%
12	COc1ccc(CCn2c(=O)c3ccccc3n(CC(=O)Nc3cccc(C)c3)c2=O)cc1OC	-9%
13	Oc1ccccc1C=NCCN1CCN(CCN=Cc2ccccc2O)C1c1ccccc1O (configuration not stated)	8%
14	O=C(NCCc1ccccc1)c1ccc2c(c1)N(Cc1ccc(Cl)cc1)C(=O)c1ccccc1S2(=O)=O	?
15	c1ccc(CSc2nnc3c(n2)OC(c2ccco2)Nc2ccccc2-3)cc1 (configuration not stated)	3%
16	CCOc1cc(C2NC(=O)NC(C)=C2C(=O)NCc2ccccc2)c(Cl)cc1O (configuration not stated)	5%
17	COc1ccc(CCN=c2c([N+](=O)[O-])nn(-c3cccc(C)c3)n2O)cc1OC	-1%
18	CCN(CC)C(=O)C(=O)c1cccn1-c1ccc(C#N)cc1	8%
19	COc1ccc(NC(=O)COC(=O)Cc2ccc(Br)cc2)cc1	-7%
20	C(=N\n1cnnc1)/c1cccnc1	21%
21	Cc1noc(C)c1COc1ccccc1C(=O)NC(C)CCc1ccccc1 (configuration not stated)	13%
22	CCN(CC)C(=O)c1sc2c(c1C)c(=O)n(-c1ccc(Cl)c(Cl)c1)c(=O)n2Cc1cc(=O)n2ccccc2n1	-7%
23	COC(=O)c1ccc(NC(=O)CSc2nc(N)c(NC(=O)c3ccc(Br)o3)c(=O)[nH]2)cc1	12%
24	CCc1cc(-c2n[nH]c(C)c2-c2nc(C)cs2)c(O)cc1OC	-4%
25	CCOC(=O)c1nn(-c2cccc(C)c2)c2nnc(Cc3ccc(C)cc3)c(=O)n12	1%
26	CC(C)CCCN1C(N(C)C)=NC[C@@H]1C	-4%
27	CCNc1c(NS(=O)(=O)c2ccc(Cl)s2)c(=O)oc2ccccc12	-10%
28	COc1cccc(OC)c1C(=O)Nc1ccc(CN2CCCCC2)cc1	6%
29	CC(=O)N(C(C)=O)c1ccc2nc(C)[nH]c(=O)c2c1	1%
30	COc1ccccc1/C=C/C=N/n1c(C)nnc1C	-8%
31	CC(NC(=O)c1cc(Sc2ccc(F)cc2F)nc2ccccc12)c1ccccc1 (configuration not stated)	3%
32	Oc1ccc2ccccc2c1/C=N/Nc1ccccc1	-12%
33	COc1cccc(NS(=O)(=O)c2cc(C)sc2C)c1	14%
34	COc1cc(OC)c(NC(=O)n2ncc3cc(Cl)ccc32)cc1Cl	2%
35	COc1ccc(-n2nc(C(=O)Nc3ccc(Cl)cn3)c3c4ccccc4n(C)c3c2=O)cc1	-4%
36	Clc1ccccc1CSc1nnc(/C=C/c2ccccc2)o1	-10%
37	COc1cc(/C=C/C(=O)NCc2ccccn2)cc(OC)c1OC	11%
38	Cc1cccc(OCC(=O)N2CCc3ccccc3C2)c1	-22%
39	NS(=O)(=O)c1cc(C(=O)OCC(=O)NNC(=O)c2ccccc2)ccc1Cl	-5%
40	O=[N+]([O-])c1ccc(N(CC2CO2)S(=O)(=O)c2ccccc2)cc1 (configuration not stated)	-7%
41	Oc1ccc(-c2nc(-c3ccc(O)c(O)c3)cs2)cc1	-5%
42	O=C(NNS(=O)(=O)c1ccccc1[N+](=O)[O-])c1ccccc1[N+](=O)[O-]	0%
43	O=C(c1cnccn1)N1CCC2(CC1)CN(Cc1nccs1)C2	3%
44	COCCCNCCOCCOc1ccc(C)cc1Br	5%
45	O=C(Cc1cccs1)Nc1ccccc1	3%
46	COC(=O)/C=C1/C(=O)N/C(=N\c2nc(C)cc(C)n2)N1c1ccc(OC)cc1	-1%
47	O=C(NCc1ccco1)C1(S(=O)(=O)c2ccccc2)CC=CC1	-24%
48	COC1=CC(=O)C=C(OC)C1(O)CC(C)=O	-3%
49	CN1CCN(CCCNC(=O)c2nnc(Cc3c(F)cccc3Cl)o2)CC1	2%
50	O=S(=O)(NCc1cccnc1)c1ccc2c(c1)OCCO2	-7%
51	CN1CCN(NC(=O)Nc2ccc([N+](=O)[O-])cc2)CC1	4%
52	Cc1ccc(OCC(=O)N(Cc2cccs2)C2CCS(=O)(=O)C2)cc1 (configuration not stated)	9%
53	CC(C)c1ccc[n+](-c2nc([O-])sc2C=O)c1	-3%
54	CCS(=O)(=O)N1CCN(C(=O)CC(C)C)CC1	27%
55	CC1CN(c2ccc([N+](=O)[O-])cc2C(=O)N2CCOCC2)CC(C)N1 (configuration not stated)	-6%
56	CCCn1c(=O)c(C)cn2nc(N)nc12	-8%&-11%
57	Cc1n[nH]c(=O)n1-c1ccc(OC(F)(F)F)cc1	8%
58	O=C(Cc1cccs1)N=Nc1c(O)[nH]c2ccccc12	5%
59	Cc1cc(NC(=O)C(C)SCC(=O)Nc2ccc(SC(F)F)cc2)no1 (configuration not stated)	2%
60	CN(C)c1ccc(NC(=O)CC2NCCNC2=O)cc1 (configuration not stated)	14%

Other compounds
cpd	compound	VDR inhibitor
61	O=c1[nH]cccc1-c1nc2ccccc2n1Cc1ccccc1F	?
62	CC1CCC(C(C)C)C(OCC(O)CN2CCN(Cc3ccccc3)CC2)C1 (configuration not stated)	7%
63	CCN(CC)S(=O)(=O)c1cccc(C(=O)N/N=C(\C)c2cccs2)c1	-6%
64	CCn1ccnc1CN(C)Cc1nc(Cc2cccc(C(F)(F)F)c2)no1	-7%
65	CCCOc1ccc(C(=O)CCNC(Cc2c[nH]c3ccccc23)C(=O)O)cc1 (configuration not stated)	45µM*
66	CCCc1cc(C(=O)OCC(=O)N2CCN(c3ccc(OC)cc3)CC2)sc1C	-16%
67	COc1cccc(Nc2nc3cc(Cl)c(Cl)cc3nc2-n2nc(C)cc2C)c1	-12%
68	COc1ccc(Cl)cc1Nc1nc(-c2sc(NC(=O)C(C)(C)C)nc2C)cs1	?
69	Cc1cc(N/N=C/c2ccc(O)c(C)c2O)nc(-c2ccccc2O)n1	10%
70	O=[N+]([O-])c1ccc(-c2ccc(/C=N/Nc3nc(N4CCCC4)nc(N4CCCC4)n3)o2)cc1	-3%
71	CCc1nnc(NC(=O)CSc2nnc(COc3ccc(C#N)cc3)n2-c2ccccc2)s1	5%
72	Cc1ccc(C)c(S(=O)(=O)N2CCN(C(=O)c3ccnn3C)CC2)c1	-15%
73	COc1ccc(S(=O)(=O)Nc2ccc(N3CCOCC3)nc2)cc1	27%
74	Cc1ccc(-c2csc(NC(=O)CCNC(=O)c3ccco3)n2)cc1	5%
75	O=C(O)[C@@H](S)[C@H](S)C(=O)O	18µM*
76	COc1ccc(-c2csc(NNC3=NCCCCC3)n2)cc1	?
77	CC(C)Oc1ccc(C2CC(=O)N(c3cccc(C(=O)O)c3)C2=O)cc1 (configuration not stated)	-1%
78	c1ccc2c(c1)CCCN2Cc1nnnn1CC1CCCO1 (configuration not stated)	1%
79	CCC(c1nnnn1Cc1ccc(F)cc1)N(CCCO)Cc1cc2cc3c(cc2[nH]c1=O)OCO3 (configuration not stated)	-5%
80	Cc1nnc(SCc2cc(=O)[nH]c(N3CCN(Cc4ccccc4)CC3)n2)s1	-8%
81	CCOC(=O)CCCNC(=O)COC(=O)c1cccc(C)c1O	9%
82	Cc1nc2c(n1O)CCC/C2=N\O	4%
83	Cc1cnc(C)c(N2CCC(C(=O)NCc3ccco3)CC2)n1	3%
84	O=C(Cn1cc(C(F)(F)F)cc(Cl)c1=O)Nc1cc(Cl)cc(Cl)c1	-13%

Some of the entries above in another layout.
50: O=S(=O)(NCc1cccnc1)c1ccc2c(c1)OCCO2
  VDR inhibitor: -7%
51: CN1CCN(NC(=O)Nc2ccc([N+](=O)[O-])cc2)CC1
  VDR inhibitor: 4%
52: Cc1ccc(OCC(=O)N(Cc2cccs2)C2CCS(=O)(=O)C2)cc1 (configuration not stated)
  VDR inhibitor: 9%
53: CC(C)c1ccc[n+](-c2nc([O-])sc2C=O)c1
  VDR inhibitor: -3%

VDR inhibitor: entries above that show a hit.
cpd	compound	VDR inhibitor
65	CCCOc1ccc(C(=O)CCNC(Cc2c[nH]c3ccccc23)C(=O)O)cc1 (configuration not stated)	45µM*
75	O=C(O)[C@@H](S)[C@H](S)C(=O)O	18µM*

Following part:
cpd	compound	VDR inhibitor
85	COc1ccccc1NC(=S)NC(NC(=O)C(C)C)C(Cl)(Cl)Cl (configuration not stated)	-3%
86	O=c1c(Cl)c(Cl)cnn1-c1ccccc1	-1%
87	O=C1C2C3c4ccccc4C(c4ccccc43)C2C(=O)N1Cc1ccccn1 (configuration not stated)	-6%
88	CC(C)(C)NC(=S)NCc1ccncc1	10%
89	COc1cccc(C(=O)NCCS(=O)(=O)N(C)Cc2ccccc2)c1	-12%
90	COc1ccccc1CNC(=O)CC(C)c1ccccc1 (configuration not stated)	-13%
91	Nc1nc(SCC(=O)Nc2cccc(F)c2)n[nH]1	-8%
92	Cc1ccc(CNC(=O)CCSCCC(=O)NCc2ccc(C)cc2)cc1	8%
93	Cc1ccc(C2=NN(C(=O)c3ccccc3F)C(c3ccccc3F)C2)cc1 (configuration not stated)	-25%
94	CCc1cccc(C)c1NC(=O)CSc1nc2ccccc2nc1Cc1ccccc1	20%
95	N#C/C(=C\c1ccccc1)C(=O)Nc1nncs1	2%
96	Cc1ccc(S(=O)(=O)N2CN(Cc3ccco3)c3nc4ccccc4nc32)cc1C	10%
97	COc1ccccc1OCCn1c(=S)[nH]c2ccccc21	-16%
98	COCCn1c(=O)[nH]c2cc(C(=O)N3CCN(c4ccccc4OC)CC3)ccc2c1=O	0%
99	CCOC(=O)CC(NC(=O)c1cc2cccc(OC)c2oc1=O)c1ccc(OC)cc1 (configuration not stated)	-10%
100	Cc1ccc(CNC(=O)Nc2ccc(C)cc2)cc1	2%
101	CCC(C)NC(=O)CN(C1CCCCC1)S(=O)(=O)c1ccc(F)cc1 (configuration not stated)	-15%
102	C[C@H]1COC(=O)[C@@H](Cc2ccc(F)cc2)CC/C=C/C[C@H](CC(=O)N(CCO)Cc2ccccc2)C(=O)N1	-9%
103	CCCOC(=O)c1c(-c2ccccc2)c(-c2ccccc2)nn(C)c1=O	2%
104	COc1cccc(CNC(=O)Cc2ccc(-n3c(=O)[nH]c4ccccc4c3=O)cc2)c1	-1%
105	CCOc1ccc(CNC(=O)C(CC)n2nc(C)n3c(cc4occc43)c2=O)cc1OC (configuration not stated)	5%
106	COc1ccc(NC(=O)CN(C)C(=O)c2c(C)nn(Cc3ccccc3)c2C)cc1	-13%
107	COc1cc(NC(=O)c2ccc(-n3cnc4cccnc43)cc2)cc(OC)c1	25%
108	CCc1cc2c(SCC(=O)NC(=O)c3cccn3C)ncnc2s1	12%
109	Cc1ccc(-n2nc(C)cc2N)c(C)c1	12%
110	O=C1N/C(=C\c2ccsc2)C(=O)N1Cc1ccc(F)cc1	-17%
111	CCc1ccc(NCc2cc3cc4c(cc3n(CC(=O)Nc3ccccc3OC)c2=O)OCCO4)cc1	-5%
112	O=C(COC(=O)CNC(=O)c1ccc(Br)o1)Nc1ccc2c(c1)OCCO2	4%
113	CC1(C)CC(=O)C2=C(C1)Nc1ccccc1NC2c1nc2ccccc2[nH]1 (configuration not stated)	-8%
114	CCOc1ccc2oc(=O)cc(CN3CCN(Cc4ccc(C)cc4)CC3)c2c1	6%
115	O=C(N=Nc1c(O)n(C2OC(=O)c3ccccc32)c2ccccc12)c1ccc(O)cc1 (configuration not stated)	26%
116	Cc1cc(C(=O)NC(C)C)on1	-16%
117	COc1ccc(/C=C/C(=O)Nc2ccc3nc(N4CCC(C)CC4)cc(C)c3c2)cc1	-28%
118	COc1ccc(OC)c(NC(=O)CSc2nnc(C)n2Cc2ccccc2)c1	9%
119	Cc1ccc(-c2cc(=O)c3ccc(F)cc3[nH]2)cc1	-3%
120	CCC(=O)N(CC)c1nc(-c2cc(OC)ccc2OC)cs1	1%
121	CCN(C(=O)CCNC(=O)Cn1cnc2ccccc2c1=O)c1cccc(Cl)c1	-2%&0%
122	Cc1sc(N/N=C/c2cccs2)nc1-c1ccccc1	?
123	Cc1ccc(C)c(N(C)C(=O)C2CCN(S(=O)(=O)c3cccc4nsnc34)CC2)c1	-3%
124	Cc1cccc(NC(=O)Cn2c(=O)n(CCC(=O)NC3CCCC3)c(=O)c3ccccc32)c1	13%
125	C[C@H](CO)N1C[C@H](C)[C@@H](CN(C)C(=O)Nc2ccccc2)Oc2c(NC(=O)Nc3ccc4c(c3)OCO4)cccc2C1=O	0%
126	Cc1cccc(C(=O)n2nc(C)c(S(=O)(=O)N3CCOCC3)c2C)c1	1%
127	COc1ccc(NC2c3ncccc3C(=O)N2Cc2cccs2)cc1 (configuration not stated)	-1%
128	COc1ccc(NC(=O)CCS(=O)(=O)c2ccc3c(c2)CCN3C(C)=O)cc1	1%
129	NC(=O)c1cc(Br)cc(C2CCCCC2)c1O	-4%
